Screening results (PubChem)
HSD17B inhib – HSD17B dehydrogenase inhibition | recombinant HSD17B10, NADH fluorescence kinetic; many of its hits are not listed in these tables | Q99714 | AID 893 | 75,000 tested, 7.6% active | Potency, µM (doses to about 57.1 µM), for the others: at the top dose activity change, negative = inhibition, usual class: inhibitors; active = well fitted inhibition curve with a large enough effect; inconclusive = small, poorly fitted or top-dose-only effect; inactive = no such curve, though single readings can be large or run the other way;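 also: the protocol describes HADH2 (HSD17B10) and not the HSD17B4 of the title; nearly all actives have a fitted effect of over 70% in size; most hits overshoot -100% by far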
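Enzyme plus compound, 15 min room temperature; substrate mix added (NAD+ 1 mM, beta-hydroxybutyryl-CoA 90 uM final); plates read kinetically for NADH fluorescence. HADH2 was His-tagged, E. coli-derived, 20 nM.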
Active calls of the source: *; ? = inconclusive; & = joins results of further samples; [ ] = dose if it differs, or a comment. % is scaled to controls: 0 for no effect and ±100 for the full control effect; potency is read from the fitted curve at half-maximal effect. Only part of the results is shown. The share of hits here may be higher or lower than overall.

SMILES | HSD17B inhib
COc1ccc(NC(=O)c2cnc3sccn3c2=O)cc1OC | -7%
COC(=O)C(C(=O)Nc1ncccn1)C1CCCCCC1 (centres undefined) | 6%
CCOC(=O)N1CCN(C(=O)C2CCCN(S(=O)(=O)c3cccnc3)C2)CC1 (centres undefined) | 2%
O=S(=O)(c1ccc(F)c(F)c1)N1CCN(Cc2ccc3c(c2)OCO3)CC1 | 4%
CC1(C)NC(=O)N(CC(O)CN(Cc2ccccc2)Cc2ccccc2)C1=O (centres undefined) | 15%
O=S(=O)(c1ccc(-c2csc(-c3cccnc3)n2)cc1)N1CCCC1 | -27%
c1ccc(-n2cccc2CNC2CCCCC2)cc1 | -6%
O=S(=O)(c1ccc(Cl)s1)N1CCN(Cc2ccccc2)CC1 | -1%
C/C(CCC(=O)OC[C@@H]1O[C@H](C#Cc2ccccc2)C=C[C@@H]1Oc1ccc(C)cc1)=N/O[C@@H](C)CN1CCCc2nc(C)c(C)cc21 | -5%[11.4 µM]
NC(N)=NCCCC(NC(=O)C(N)Cc1ccc(O)cc1)C(=O)O (centres undefined) | 2%
COc1ccc(Cn2c(=O)[nH]c3cc(C(=O)NCc4ccc5c(c4)OCO5)ccc3c2=O)cc1 | 15%
O=C(NCC1CCCO1)c1cnn2c1NC(c1ccccc1)CC2C(F)(F)F (centres undefined) | -2%
CCOc1ccc(NS(=O)(=O)c2ccc(NS(C)(=O)=O)cc2)cc1 | 10%
O=C(O)CN(CCO)CCN(CC(=O)O)CC(=O)O | -5%&10%
Cc1cccc(-c2nnc(SCC#N)n2-c2ccccc2)c1 | 9%
O=C(Nc1nnc(C2CCCCC2)s1)c1cccs1 | -5%
CSc1nc(-c2ccccc2)nc(N2CCN(C)CC2)c1C(C)=O | -9%
COc1ccc(/C=C(\C#N)C(N)=O)cc1OC | 9%[11.4 µM]
O=C(NCCN1CCCC1)C1CCN(S(=O)(=O)N2CCC3(CC2)OCCO3)CC1 | 13%
O=C(CN1CCCC1)N1CCCc2c1c(=O)oc1ccc(OCc3ccccc3)cc21 | 25µM*

Next part, starting with the last five of the part before.
SMILES | HSD17B inhib
O=C(Nc1nnc(C2CCCCC2)s1)c1cccs1 | -5%
CSc1nc(-c2ccccc2)nc(N2CCN(C)CC2)c1C(C)=O | -9%
COc1ccc(/C=C(\C#N)C(N)=O)cc1OC | 9%[11.4 µM]
O=C(NCCN1CCCC1)C1CCN(S(=O)(=O)N2CCC3(CC2)OCCO3)CC1 | 13%
O=C(CN1CCCC1)N1CCCc2c1c(=O)oc1ccc(OCc3ccccc3)cc21 | 25µM*
CCn1c(=O)n(CC)c2cc(S(=O)(=O)N3CCc4ccccc43)ccc21 | -3%
O=C(CSc1nnc(-c2ccco2)n1Cc1ccccc1)OC1CCCCC1 | -11%
CC(C)NC(=O)CSc1nc2ccccc2n1-c1ccccc1 | -5%
O=P(O)(O)c1ccccc1OCc1ccccc1 | 6%
CC(C)CCOC(=O)C1C2C=CC3(CN(Cc4cccs4)C(=O)C13)O2 (centres undefined) | -1%
CCN1CCCC1CNC(=O)c1c(O)c2c([nH]c1=O)CCCC2 (centres undefined) | 5%
Cc1ccc(-c2nnc(CSc3nnc4c5c(C)c(C)sc5nc(C(C)C)n34)o2)cc1 | 4%
COc1ccccc1C(=O)Nc1ccc(N2CCN(S(C)(=O)=O)CC2)cc1 | ?
CC1CCCN(CCCNC(=O)CCn2nc(-c3ccccc3)ccc2=O)C1 (centres undefined) | 5%
CCn1cc(C(=O)O)c(=O)c2cc(F)c(N3CCN(C(=O)Nc4ccccc4)CC3)cc21 | 25µM*
O=C(COC(=O)c1ccco1)NCc1cccs1 | 13%
CC1(C)NC(=O)N(CC(O)COc2ccc(N3C(=O)c4ccccc4C3=O)cc2)C1=O (centres undefined) | 7%
CCC1c2ccc(C)n2CCN1C(=O)Nc1ccccc1OC (centres undefined) | 32µM*
COC(=O)C1(C)NC(c2cccs2)C2C(=O)N(c3ccc(F)cc3)C(=O)C21 (centres undefined) | -6%
COc1ccc(NC(=O)C2=C(C)Nc3ncnn3C2c2ccccc2C(F)(F)F)c(OC)c1 (centres undefined) | 8%
CC(C)(C)NC(=O)C(c1ccco1)N(Cc1ccc2c(c1)OCO2)C(=O)Cn1nnc2ccccc21 (centres undefined) | -7%
Cc1cccc(OCc2nnc(SCC(=O)N3CCN(C(=O)c4ccco4)CC3)n2C)c1C | 3%
O=C(O)CSc1nc2ccc(Cl)cc2[nH]1 | 2%
Cc1nnc(SCCN2CCOCC2)n1-c1cccc(Cl)c1 | 8%
Cc1ccc(NC(=O)CN(C)S(=O)(=O)c2cccc3nsnc23)cc1Cl | -7%
c1ccc(-c2cc(N3CCCCC3)ncn2)cc1 | -9%
COc1cc(NC(=O)c2cccs2)c(C(=O)OCC(=O)NCc2ccco2)cc1OC | 32µM*
Fc1ccccc1-c1nc(-c2ccccc2)no1 | 2%
CC(=O)Cc1nsc(Nc2ccc3c(c2)OCCO3)n1 | 3%
Nc1nc(-c2cccnc2)nn1C(=O)Cc1ccccc1 | ?
CCS(=O)(=O)N1CCC(C(=O)NCc2ccccc2OC)CC1 | 3%
CC(C)(C)c1cc(C(=O)/C=C/c2ccc(C(=O)O)cc2)cc(C(C)(C)C)c1 | ?
C/C(=C\CO)CCC(C)CCCC(C)CCCC(C)C (centres undefined) | -12%
COc1cc2c(cc1NC(=O)Cn1cnc3c1c(=O)n(C)c(=O)n3C)oc1ccccc12 | 5%
O=C(NCCN1CCOCC1)c1ccc(CS(=O)(=O)c2ccc(Cl)cc2)o1 | -5%
Nc1nc2ccc([N+](=O)[O-])cc2s1 | -26%
CCn1ncc(C2=NOC(C(=O)Nc3cccnc3)C2)c1C (centres undefined) | 11%
CCN(C(=O)CN1CCN(c2ccccc2OC)CC1)c1c(N)n(Cc2ccccc2)c(=O)[nH]c1=O | 10%
COc1cc(C2C(C(=O)c3ccc(C)o3)=C(O)C(=O)N2CCc2ccccc2)ccc1O (centres undefined) | 3%
O=C(c1ccccc1)C1C(=O)c2ccccc2C1=O | -12%
Cc1noc(C)c1-c1ccc2ncnc(NCc3cccnc3)c2c1 | -19%
COc1cccc(N2CCN(C(=O)c3[nH]c(C)c(C(C)=O)c3C)CC2)c1 | 6%
CN1CCc2ccccc2Cc2[nH]c3ccccc3c2CC1 | -5%
CCN(CCNC(=O)C1CCN(Cc2nc(-c3cccc(Cl)c3)oc2C)CC1)c1ccccc1 | ?
COc1ccc(-c2noc(-c3ccccc3C(=O)NCc3ccco3)n2)cc1OC | -7%

An excerpt from above in order of length of the SMILES, lowest first.
SMILES | HSD17B inhib
O=C(c1ccccc1)C1C(=O)c2ccccc2C1=O | -12%
CN1CCc2ccccc2Cc2[nH]c3ccccc3c2CC1 | -5%
COc1ccc(-c2noc(-c3ccccc3C(=O)NCc3ccco3)n2)cc1OC | -7%
CCN(CCNC(=O)C1CCN(Cc2nc(-c3cccc(Cl)c3)oc2C)CC1)c1ccccc1 | ?

Later entries
SMILES | HSD17B inhib
COCCN1C(=O)c2oc3c(C)cc(C)cc3c(=O)c2C1c1cccc(O)c1 (centres undefined) | 4%
CC1CCN(C(=O)CSc2nnc(Cc3cccn3C)n2-c2ccc(F)cc2)CC1 | 8%
Cc1noc(C)c1COC(=O)c1ccc2c(c1)S(=O)(=O)c1ccccc1C2=O | 8%
O=C(c1ccccc1)N1CC(COc2ccccc2)OC(c2ccco2)O1 (centres undefined) | 0%
O=C(COC(=O)c1cccs1)NC1CCCCC1 | 9%
COc1ccc(CCN=CC2=C(O)CCCC2=O)cc1OC | 3%
N[C@@H](Cn1cc(F)c(=O)[nH]c1=O)C(=O)O | -3%
CC(=O)C1=C(c2ccccc2)NC(=O)NC1c1ccccc1OCC#N (centres undefined) | -6%
CCOC(=O)N1CCN(C(=O)C2CCC(CNS(=O)(=O)c3ccccc3)CC2)CC1 (centres undefined) | -10%
O=C(Nc1nncs1)c1cccc(S(=O)(=O)N2CCCC2)c1 | 3%
Cc1cc(C)c(S(=O)(=O)N(CC(=O)N2CCOCC2)C2CCCCC2)c(C)c1 | 25µM*
C=CCn1c(SCC(=O)NCc2cccs2)nnc1C1CCCCC1 | 0%
CN(C)Cc1nsc(N(C)C)n1 | 1%[11.4 µM]
CC(=O)N=C1SC2CS(=O)(=O)CC2N1c1c(Cl)cccc1Cl (centres undefined) | 7%
CCOC(=O)Cn1c(=O)c2c(nc3n2CCN3Cc2ccccc2)n(C)c1=O | 6%
O=C1CCCC2=C1C1(CCCC1)N=C(Nc1nc3ccccc3s1)N2 | ?
CCOc1ccccc1OC(=O)c1ccco1 | 5%
O=C(c1ccc(Cl)s1)N1CCc2ccccc21 | -2%
O=C(c1ccc(N2CCOCC2)nc1)N1CCOCC1 | -28%
O=C(Nc1ccc2c(c1)OCCO2)c1cccc(S(=O)(=O)N2CCOCC2)c1 | 5%
COC(=O)CSc1nnc(Cc2cc(=O)[nH]c(=O)[nH]2)n1-c1cccc(OC)c1 | 0%
O=C(CCN1C(=O)C2C3C=CC(C3)C2C1=O)N1CCN(c2cccc(Cl)c2)CC1 (centres undefined) | -3%
O=S(=O)(Nc1nc2ccccc2[nH]1)c1ccccc1 | 4%
COC(=O)c1cc(NCc2cccs2)ccc1N1CCOCC1 | 6%
CCOCCn1c(=O)c2c(nc3n2CCN3c2ccc(C)cc2)n(C)c1=O | 10%
O=C(Cn1c(=O)oc2cc(S(=O)(=O)N3CCc4ccccc43)ccc21)N1CCCCC1 | -1%
O=C(Nc1ccc([N+](=O)[O-])cc1Cl)c1cc(Cl)ccc1O | 5%
CCn1c(SCC(N)=O)nc2c1c(=O)n(C)c(=O)n2C | 4%
O=C(NCCN1C(=O)C2C3C=CC(C3)C2C1=O)Nc1ccc(Br)cc1 (centres undefined) | 5%
O=C(COC(=O)c1cn(-c2ccccc2)nc1-c1cccs1)NC1CC1 | ?
COc1ccc(N2C(=O)CSC2c2cccc(F)c2)c(OC)c1 (centres undefined) | 10%
O=C(NC(=O)c1cccc(F)c1)OC[C@@H]1CCCN2CCCC[C@H]12 | -2%
O=C1OCCC1N1C(=O)c2ccccc2S1(=O)=O (centres undefined) | -5%
Cc1noc(NS(=O)(=O)c2ccc(NC(=O)c3ccoc3C)cc2)c1C | ?
CCOc1ccc(OCC)c(NC(=O)CSc2nc3cccnc3n2C)c1 | -14%
Cc1cc(NC(=O)CSc2nnc(CNc3ccc(F)cc3)n2C2CCCCC2)no1 | 7%
Cc1ccccc1-c1nnc(SCC(=O)Nc2ccc3c(c2)OCCO3)n1N | 7%
COc1ccc(OC)c(N(CC(=O)O)S(=O)(=O)c2ccc(OC)c(OC)c2)c1 | 8%
Cc1ccc(N=Nc2c(O)c3ccccc3[nH]c2=O)c(S(=O)(=O)N(C)C)c1 | 7%[11.4 µM]
CC1=CC(=C2C(=O)c3ccccc3C2=O)C=C(C)N1C | -11%
COc1ccc(C2/C(=C(/O)c3ccccc3)C(=O)C(=O)N2CCO)cc1 (centres undefined) | -7%
Cc1cccc(NC(=O)c2cccnc2)c1 | 20%
COc1ccc2[nH]cc(CCN=C3SCC(=O)N3C)c2c1 | -4%
CC1CCc2nn(CC(=O)NCCN3CCOCC3)cc2C1 (centres undefined) | 6%
CC(C)N(C(=O)NC(=O)NCC1CCCO1)S(C)(=O)=O (centres undefined) | 2%
COc1ccc(OCCCC(=O)Nc2nnc(C3CCCO3)s2)cc1 (centres undefined) | 0%
C#CC(C)(C)NC(=O)CSc1nc2c(c(=O)n(C)c(=O)n2C)n1CCCC | 0%
CCN(CCNC(=O)CS(=O)(=O)Cc1nc(-c2cccc(OC)c2)oc1C)c1ccccc1 | -14%
CCOC(=O)CCCCC(=O)c1[nH]c(=O)[nH]c1Cn1cnc2ccccc21 | -3%
Cc1nc(SC2CC(=O)N(c3ccccc3)C2=O)nc2c1CCCC2 (centres undefined) | -1%
Cc1nn(CCCC(=O)N2CCc3ccccc3C2)c(=O)c2cc3sccc3n12 | 4%
CCOc1ccccc1C(=O)N(Cc1ccco1)C1CCS(=O)(=O)C1 (centres undefined) | -1%
O=C1C2CCCN2C(c2ccc(F)c(F)c2)N1c1cccc(Cl)c1 (centres undefined) | 4%
CC(C)NC(=O)N1CCCC2(CCN(C(=O)c3ccncc3)CC2)C1 | 1%
COCCN(CCOC)S(=O)(=O)c1ccc(C(=O)NC2CCN(Cc3ccccc3)CC2)cc1 | 7%
O=C(Nc1ccc(NC(=O)C2CCCN2C(=O)OCc2ccccc2)cc1)c1ccco1 (centres undefined) | 135%[activator]
O=C(CSc1ccccc1)Nc1ccccc1N1CCOCC1 | -2%
O=C(c1cnccn1)N1CCC2(CC1)CN(c1cccc(-c3ccccc3)c1)C2 | -4%
O=C(CN(c1ccc(F)cc1)S(=O)(=O)c1ccc2c(c1)OCCO2)Nc1cccnc1 | 9%
COc1ccc(-n2c(=O)cnc3cnc(N4CCN(C)CC4)nc32)cc1 | -8%
CC(C)C1CC(=O)NC(SCC(=O)Nc2ccc(Br)cc2)=C1C#N (centres undefined) | 3%

Four entries from above, reformatted.
Molecule	HSD17B inhib
O=C(c1cnccn1)N1CCC2(CC1)CN(c1cccc(-c3ccccc3)c1)C2	-4%
O=C(CN(c1ccc(F)cc1)S(=O)(=O)c1ccc2c(c1)OCCO2)Nc1cccnc1	9%
COc1ccc(-n2c(=O)cnc3cnc(N4CCN(C)CC4)nc32)cc1	-8%
CC(C)C1CC(=O)NC(SCC(=O)Nc2ccc(Br)cc2)=C1C#N (centres undefined)	3%
